# Six1-Eya2 blk: inhibitors of human Six1/Eya2 interaction; Q15475+O00167; AlphaScreen GST-Six1/His-Eya2 binding, biochemical; hits give low values; control for the full effect not named in the record; activity change, % (no concentration beside the values); hit rate 0.56% among 360,000; in the data active = activity change below about -65%; inconclusive = about -30% to -65%; inactive = above about -30%; also: % is scaled to controls: 0 for no effect and ±100 for the full control effect; compound concentration not given in the record
# Target sequence (O00167 whole entry, looked up): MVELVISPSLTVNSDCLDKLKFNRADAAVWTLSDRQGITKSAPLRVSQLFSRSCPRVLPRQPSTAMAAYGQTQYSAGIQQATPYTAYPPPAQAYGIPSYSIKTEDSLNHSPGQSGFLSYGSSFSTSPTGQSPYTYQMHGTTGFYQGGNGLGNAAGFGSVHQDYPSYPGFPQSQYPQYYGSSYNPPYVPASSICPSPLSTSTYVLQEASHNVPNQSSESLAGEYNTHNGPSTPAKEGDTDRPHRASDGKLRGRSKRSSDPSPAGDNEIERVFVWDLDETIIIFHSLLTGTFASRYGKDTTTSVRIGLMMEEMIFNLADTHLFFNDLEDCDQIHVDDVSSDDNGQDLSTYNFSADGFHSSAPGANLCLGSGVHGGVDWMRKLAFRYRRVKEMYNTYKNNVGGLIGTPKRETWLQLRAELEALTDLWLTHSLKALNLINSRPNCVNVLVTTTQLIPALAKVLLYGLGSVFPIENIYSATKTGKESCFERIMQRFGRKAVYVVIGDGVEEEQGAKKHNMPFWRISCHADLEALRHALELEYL
# Target sequence (Q15475 whole entry, looked up): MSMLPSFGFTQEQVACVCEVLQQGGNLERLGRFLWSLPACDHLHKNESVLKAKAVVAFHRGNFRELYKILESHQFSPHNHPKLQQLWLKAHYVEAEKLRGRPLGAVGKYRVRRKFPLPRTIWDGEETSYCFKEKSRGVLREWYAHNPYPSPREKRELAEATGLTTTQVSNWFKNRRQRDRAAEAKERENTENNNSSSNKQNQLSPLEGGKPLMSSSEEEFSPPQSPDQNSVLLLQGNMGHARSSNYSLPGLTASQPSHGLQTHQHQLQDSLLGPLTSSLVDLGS
#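 AlphaScreen luminescence read after one hour at 37 °C in darkness. Pin-transferred compounds met GST-Six1 and His-Eya2 protein (5X stock 250 nM/500 nM) plus glutathione donor and Ni-chelate acceptor beads (5X, 50 ug/mL).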
# TRPML1 agonist: activates the human TRPML1 channel; hit rate 0.12% among 410,000; activation, % (no concentration beside the values); TRPML1-expressing cells, Ca2+ dye fluorescence, FDSS; host cell line not named in the record; reference of the full effect not given here; in the data active = activation above about 50%; inconclusive = about 30% to 50%; inactive = below about 30%; also: 0% is about no effect; the text of the record puts the active cut at 80%
#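 TRPML1-DL cells, Tet-induced overnight (~16 h, 37 degrees C), loaded 45-90 min at room temperature with Ca8 no-wash calcium dye plus quencher. FDSS fluorescence: 10 s baseline, compound pin-transfer, 110 s agonist read, then EC80 54-4 (4uM final) and 110 s antagonist read.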
# TRPML1 inh: blocks the human TRPML1 channel; Q9GZU1; TRPML1-inducible cells, Ca2+ dye fluorescence, FDSS; hits give low values; inhibition of EC80 agonist-evoked calcium signal; activity change, negative = inhibition, % (concentration not given with the values); hit rate 0.02% among 390,000; in the data active means activity change below about -50%; inconclusive means about -30% to -50%; inactive means above about -30%;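 also: stimulus is agonist 54-4 at its EC80 concentration; % is scaled to controls: 0 for no effect and ±100 for the full control effect; compound concentration not given in the record; the text of the record puts the active cut at -80%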
#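 Tet-induced TRPML1-DL cells loaded with Ca8 no-wash calcium dye were read kinetically on FDSS. Compound addition was followed by EC80 agonist 54-4 (4 uM final); inhibition was read over 110 s.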
# CtBP-E1A blk: inhibitors of CtBP/E1A interaction. activity change, % (concentration not given with the values). AID 651724. AlphaScreen GST-E1A/His-CtBP binding, 1536-well; hits give low values; control for the full effect not named in the record. hit rate 0.49% among 340,000; in the data active means activity change below about -65%; inconclusive means about -30% to -65%; inactive means above about -30%; also: % is scaled to controls: 0 for no effect and ±100 for the full control effect
#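 Steps: dispense buffer (Tris pH 8.0, NaCl 300 mM, TCEP 1 mM, BSA, Tween 20); add 5X protein mix (GST-E1A, His-CtBP, 125 nM each); pin 23 nL compound; 2 h at 37 °C, dark; add 5X beads (50 ug/mL); 1 h; read.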
# TRPV1 PAM: potentiators of human vanilloid receptor 1 (TRPV1) | potentiation, % at 8.33 µM | AID 540277 | hit rate 0.02% among 320,000 | TRPV1-expressing cells, Fluo-8 calcium influx, capsaicin EC20 potentiation; host cell line not named in the record; control for the full effect not named in the record | Q8NER1; active means potentiation above 80%; inconclusive means 30% to 80%; inactive means below 30%; also: 0% is about no effect
#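 TRPV1-expressing cells were cultured overnight at 35.5C and loaded with Fluo-8 calcium dye for 40 to 90 min at room temperature. After a 10 s baseline, compound was added and calcium influx was read kinetically for 3 min (ex 480/em 520 nm).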
# D2 potentiator: potentiates the human D2 dopamine receptor allosterically; P14416; DiscoveRx D2 beta-arrestin cells, luminescence, 90 min; 100% = 57 uM dopamine signal; potentiation, % (test concentration not listed); hit rate 0.23% among 360,000; active = potentiation of 50% or more; inconclusive = 30% to 50%; inactive = 30% or less;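 also: compound concentration not given in the record; tested on top of an EC20 dose of dopamine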
#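 PathHunter beta-arrestin assay in DiscoveRx D2 cells. Compounds were added with an EC20 of dopamine (50 nM final) for 90 min at 37 deg C. Luminescence was read 1 h after detection reagent, with 57 uM dopamine as the EC100 control.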
# Active calls of the source: *; ? = inconclusive; · = no result given.
# Second line of a record: Six1-Eya2 blk	TRPML1 agonist	TRPML1 inh	CtBP-E1A blk	TRPV1 PAM	D2 potentiator
> C=CCn1c(SC2CCOC2=O)nc2sc(CC)cc2c1=O (stereo not given)
    0	2.0	-7	9	-5	-39
> Cc1nn(CCS(=O)(=O)c2ccc(Cl)cc2)c(C)c1Br
    -4	0.3	-18	1	-7	-7
> CCOC(=O)c1cc(-c2ccc(C)cc2)n(CCC(=O)NC(C)CC)c1C (stereo not given)
    -6	0.7	15	13	-9	-49
> COc1cc(OC)c(N(C)S(=O)(=O)c2cccc(C(=O)NC3=NCCS3)c2)cc1Cl
    -14	1.5	-3	-10	3	0
> COc1ccc(-c2cnc3c(NC(C)=O)cc(-c4cccc(NS(C)(=O)=O)c4)cn23)cc1OC
    -27	-1.0	·	-18	·	5
> CCCC(C)NC(=O)CSCc1ccc(OC)cc1 (stereo not given)
    0	1.8	13	-2	-2	7
> Cc1cccc(OCCSc2ncnc3nc[nH]c23)c1
    1	1.3	-12	-1	-8	-4
> CC(OC(=O)c1ccc(O)cc1)C(=O)Nc1ccc(Oc2ccccc2)cc1 (stereo not given)
    4	0.8	3	15	·	-10
> Cc1cnnn1-c1ccc(C(=O)CCl)cc1
    14	1.3	-9	12	-4	-21
> O=C(NC(=S)N1CCc2ccccc21)C1CCC1
    -11	-0.2	3	6	14	-8
> CCc1cc2c(=O)c(-c3nc4ccccc4n3C)c(C)oc2c(CN2CCN(CCO)CC2)c1O
    -14	-0.3	-8	-6	0	-7
> CC(C)(C)NS(=O)(=O)c1ccc(-c2csnn2)s1
    0	1.4	-13	-1	-7	-17
> COc1ccc(N2C(=O)C3C4C=CC(C4)C3C2=O)c(OC)c1 (stereo not given)
    5	0.0	-1	2	4	-4
> CC(=O)N1CN(C2CCS(=O)(=O)C2)Cc2c1sc1c2CCCC1 (stereo not given)
    -3	-0.8	-9	2	-8	4
> CN(Cc1ccccc1Cl)C(=O)c1cc2ccccc2o1
    10	2.7	-8	-3	?	-11
> COc1ccc(NC(=O)C2CCN(C(=O)c3ccccc3)CC2)cc1OC
    1	-0.3	-13	-7	-4	-17
> CN(C)CCCC1(O)c2ccccc2C=Cc2ccccc21
    -1	0.0	-10	-1	-3	-18
> COc1cccc(CC2(CO)CCN(C(=O)NC3CCCCC3)CC2)c1
    2	-0.4	-8	4	-3	-5
> Cc1n[nH]c(=O)c2ccccc12
    2	-0.4	4	7	8	-8
> N#C/C(=C/c1ccc(F)cc1)S(=O)(=O)c1ccccc1
    8	0.9	17	-7	7	0
> CN(CC(=O)Nc1ccc(Cl)cc1)C(=O)CCC1CCCC1
    -4	1.2	-5	-3	-10	-18
> CCc1c(C)nc2ncnn2c1N1CCC(C(=O)Nc2ccccc2)CC1
    -3	0.3	5	0	-7	-10
> Cc1ccccc1-n1c(=O)c2ccccc2n(CC(=O)NCc2ccco2)c1=O
    0	1.9	4	·	-2	4
> O=C(NCC1CCCCC1)C1(CC2CC(c3cccc(Br)c3)=NO2)CCNCC1 (stereo not given)
    -2	3.2	3	-3	9	-8
> CCn1ccnc1[C@@H]1C[C@H]2CN(Cc3ccccc3OC)C(=O)[C@]23CCCN13
    3	1.4	18	·	-1	-7
> COc1cc([N+](=O)[O-])cc(/C=N/NC(=O)C(C)Nc2ccccc2C)c1O (stereo not given)
    ?	2.9	15	-73*	-4	-28
> COc1ccc(-n2c(C)cc(C(=O)CCl)c2C)cc1
    -9	1.9	13	-4	-3	-9
> CC(=O)c1cccc(NC(=O)c2c(C)nn(-c3ccccc3)c2Cl)c1
    2	0.7	6	8	-14	-6
> Cc1ccc(O)c(NC(=O)C2CC(c3ccc(F)cc3)=NO2)c1 (stereo not given)
    -6	2.2	-6	-6	8	23
> O=C(CCNS(=O)(=O)c1ccccc1F)NCc1ccc2c(c1)OCO2
    3	-0.3	-4	-6	0	-9

# Rewritten with each value named: entries from further up
SMILES: COc1cccc(CC2(CO)CCN(C(=O)NC3CCCCC3)CC2)c1
  Six1-Eya2 blk: 2
  TRPML1 agonist: -0.4
  TRPML1 inh: -8
  CtBP-E1A blk: 4
  TRPV1 PAM: -3
  D2 potentiator: -5

SMILES: Cc1n[nH]c(=O)c2ccccc12
  Six1-Eya2 blk: 2
  TRPML1 agonist: -0.4
  TRPML1 inh: 4
  CtBP-E1A blk: 7
  TRPV1 PAM: 8
  D2 potentiator: -8

# Remaining list, next part
canonical_smiles	Six1-Eya2 blk	TRPML1 agonist	TRPML1 inh	CtBP-E1A blk	TRPV1 PAM	D2 potentiator
NS(=O)(=O)c1cccc(NS(=O)(=O)c2ccc(/C=C/C(=O)O)cc2)c1	-18	-0.7	-22	0	26	-2
O=C(NCc1ccccn1)c1cc2ccccn2n1	5	0.1	-14	-5	·	-4
COc1ccc(S(=O)(=O)N(C)C[C@H]2Oc3ccc(NC(=O)Nc4ccc5c(c4)OCO5)cc3C(=O)N([C@H](C)CO)C[C@@H]2C)cc1	-25	-0.5	4	-19	·	-3
CC(C)Cc1cc(C(=O)O)c2ccccc2n1	3	0.9	4	8	·	0
COc1ccc(NC(=O)Cn2c(=O)oc3ccccc32)cc1	1	1.7	14	2	6	-4
O=C1CC(N2CCN(Cc3ccc4c(c3)OCO4)CC2)C(=O)N1CCc1ccccc1 (stereo not given)	-1	2.8	2	2	3	-6
COCCCNC(=O)COc1ccc(-c2nccc(-c3ccccn3)n2)cc1	-8	0.9	-2	-3	?	-9
COc1cc(C(=O)NCC(=O)NNC(=O)C2COc3ccccc3O2)cc(OC)c1OC (stereo not given)	2	-0.6	9	4	-4	-4
CC(C)n1cnnc1SCC(=O)Nc1ccc(Br)cc1F	3	-0.3	17	-4	-3	-5
COc1ccccc1CC(=O)N(CCC1=CCCCC1)c1c(N)n(Cc2ccccc2)c(=O)[nH]c1=O	22	8.1	15	2	1	-22
O=C(Nc1nnc(-c2cccs2)o1)c1cccc(F)c1	-6	0.4	6	-16	·	-4
O=C(Cc1ccccc1)Nn1c(O)c(/C=C2\C=Nc3ccccc32)sc1=S	-8	?	-19	8	13	-13
CN(Cc1ccccc1)C1(CNC(=O)CCC(F)(F)F)Cc2ccccc2C1	-8	-0.2	13	5	-4	-36
CCC1=Nc2cc(C(=O)NCCN3CCOCC3)ccc2Sc2ccc(Br)cc21	-4	0.4	-10	-11	-24	-9
CCOc1ccc(N2C(=O)c3cccnc3C2Nc2ccc(C)c(C)c2)cc1 (stereo not given)	-3	-0.3	2	-10	-7	4
CN(c1ccccc1)S(=O)(=O)c1ccc(Cl)c(C(=O)OCC(=O)N2CCOCC2)c1	9	0.4	-16	10	-7	-5
Cc1ccc(C)c(SCC(=O)OCC(=O)N2CC(C)OC(C)C2)c1 (stereo not given)	8	0.6	-6	1	10	-7
CCOc1ccc(S(=O)(=O)N(CC)CC)cc1N	14	-0.2	19	·	-2	-11
Cc1cc(COc2ccccc2O)on1	-3	-0.7	4	7	5	-27
O=C(NCc1ccncc1)c1cc(S(=O)(=O)N2CCOCC2)c(Cl)cc1Cl	7	-0.9	-1	4	8	4
COC(=O)c1nn(-c2ccc(OC)cc2)c(=O)cc1NN	-9	-0.8	-1	-20	2	10
COc1ccc(O)c(C(=O)c2cc(C#N)c(=O)n(CC3CCCO3)c2)c1 (stereo not given)	8	3.0	-5	-13	13	5
N#CCCN1CCN(S(=O)(=O)c2ccc(S(=O)(=O)N3CCCC3)cc2)CC1	8	-0.3	-9	5	-4	5
CCN(CC)c1ccc(C(=O)N/N=C(\C)c2ccc(OC)c(OC)c2)cc1	-18	-0.8	6	0	-17	-15
Cc1noc(C)c1NC(=O)Nc1ccc2c(c1)C(=O)N([C@H](C)CO)C[C@H](C)[C@@H](CN(C)C(=O)NC1CCCCC1)O2	13	1.0	-1	-23	·	-6

# Overlap with the part before: 5 compounds; new compounds follow.
canonical_smiles	Six1-Eya2 blk	TRPML1 agonist	TRPML1 inh	CtBP-E1A blk	TRPV1 PAM	D2 potentiator
COC(=O)c1nn(-c2ccc(OC)cc2)c(=O)cc1NN	-9	-0.8	-1	-20	2	10
COc1ccc(O)c(C(=O)c2cc(C#N)c(=O)n(CC3CCCO3)c2)c1 (stereo not given)	8	3.0	-5	-13	13	5
N#CCCN1CCN(S(=O)(=O)c2ccc(S(=O)(=O)N3CCCC3)cc2)CC1	8	-0.3	-9	5	-4	5
CCN(CC)c1ccc(C(=O)N/N=C(\C)c2ccc(OC)c(OC)c2)cc1	-18	-0.8	6	0	-17	-15
Cc1noc(C)c1NC(=O)Nc1ccc2c(c1)C(=O)N([C@H](C)CO)C[C@H](C)[C@@H](CN(C)C(=O)NC1CCCCC1)O2	13	1.0	-1	-23	·	-6
N=c1c(C(=O)NCC2CCCO2)cc2c(=O)n3ccccc3nc2n1Cc1ccc(F)cc1 (stereo not given)	1	0.9	-10	1	-12	-29
CC1CCCN(CCCNC(=O)c2ccc(NC(=O)C3=CSCCO3)cc2)C1 (stereo not given)	6	0.4	29	·	15	-18
CCC(=O)N(Cc1cc2c(C)ccc(C)c2[nH]c1=O)C1CCCCC1	2	6.0	-2	3	19	23
COc1cc(N(C(C)=O)c2ccc(O)c(C(=O)O)c2)c2ncccc2c1	?	-0.5	-6	-9	·	10
CN(CC(=O)Nc1ccc(F)cc1)C(=O)COc1ccc([N+](=O)[O-])cc1Cl	1	-0.5	4	-14	0	-15
Cn1c(Cn2c(=O)sc3ccccc32)nnc1SCC(=O)N1CCOCC1	0	3.7	-23	5	?	-2
CCN(CC(=O)Nc1ccc(NC(C)=O)cc1)C(=O)c1ccc2c(c1)S(=O)(=O)N=C1CCCCCN12	4	-0.2	-6	-5	?	-3
COC(=O)[C@]1(C)N[C@H](CN(C)S(=O)(=O)c2ccc(-c3ccccc3)cc2)[C@@H]2C(=O)N(C)C(=O)[C@@H]21	-1	-0.8	53	-3	·	-5
NCCNC[C@@H]1COC2(CCCCCCCCCCC2)O1	-3	-0.2	-10	-6	-4	-18
Cc1sc2c(c1C)c(=O)n(-c1ccccc1)c(=O)n2CC(=O)NCC1CCCO1 (stereo not given)	-2	0.6	-13	·	-5	7
C/C(=N\NC(=S)Nc1cccc(C)c1)c1ccccc1	?	4.2	11	?	13	-40
Cc1oc(-c2ccccc2F)nc1CS(=O)(=O)CC(=O)NCCCN1CCN(C)CC1	5	0.2	3	·	7	-8
CN(C)c1ccc(N2C(=NC(=O)CCc3ccccc3)SC3CS(=O)(=O)CC32)cc1 (stereo not given)	2	-0.1	-3	-1	-17	2

# Compound activity deposited in PubChem BioAssay by National Center for Advancing Translational Sciences (NCATS).
